Compound activity deposited in PubChem BioAssay by Broad Institute.
Tg IFNy HTS: T. gondii growth inhibition with IFN-gamma, primary screen, cell-based; Toxoplasma gondii growth in IFN-gamma-treated host cells; stronger effect = lower value; reference of the scale not given here; activity change, negative = inhibition, %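 (about 20 µM by stock and volumes)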; actives 3.8% (n = 69,000); AID 1259416, 2018;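 active means below -70%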;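 further: host cells are HeLa cells infected with Toxoplasma gondii; parasite growth read as luciferase light; one replicate is shown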
* = called active by the depositor; i = inactive; & = joins results of further samples.

SMILES	Tg IFNy HTS
O=C(CN1C(=O)CCc2cc(Br)ccc21)NC1CCCCCC1	76.2
COc1ccc(-c2[nH]ncc2CN2CCCC(C(=O)c3ccccc3SC)C2)cc1 (stereo not given)	7.4
CCOC(=O)C(O)(c1ccc(N(C)C(C)=O)cc1)C(F)(F)F (stereo not given)	-0.2
COC(=O)c1cc2n(n1)CCCN(C(=O)c1cc(C(C)C)on1)C2	0.3
Nc1ccc2c(c1)OC1(CCCCC1)O2	0.4
c1csc(CN2CC[C@H]3[C@@H]2CCN3CC2CCOCC2)c1	18.7
C/C=C/c1ccc([C@H]2[C@H]3CN(S(=O)(=O)c4ccc(OC)cc4)CCCCN3[C@H]2CO)cc1	-7.8
CCS(=O)(=O)N1CCC2(CC1)OC(=O)C(C)=C2C(=O)NCCOC	12.8
CN1C(=O)c2cc(NC(=O)c3cccc(C(F)(F)F)c3)ccc2OC[C@@H]2O[C@H](CC(=O)NCCN3CCCC3)CC[C@@H]21	-40.2
CNC(=O)c1cc2c(nc1NCC(C)C)CCN(S(=O)(=O)C1CC1)CC2	-9.7
Cc1nc2c(nc(SCc3nc(-c4ccccc4C)oc3C)n2C)c(=O)[nH]1	1.4
NC(=O)CC(CC(=O)OCc1ccccn1)c1ccccc1 (stereo not given)	25.9
CCn1c(=O)c(C(=O)Nc2cc(Cl)ccc2C)c(O)c2ccccc21	46.1
Cc1noc(C)c1S(=O)(=O)N1CCCC1C(=O)Nc1ccc2c(c1)N(C)CCC2 (stereo not given)	14.8
Cc1ccc2c(c1)NC1(CCN(C(=O)c3ccccc3Cl)CC1)c1cccn1-2	0.2
COc1ccccc1CNC(=O)CC1N=C2c3ccccc3N=C(SCc3ccccc3Cl)N2C1=O (stereo not given)	-4.2
COc1cccc(NC(=O)C[C@H]2CC[C@H]3[C@@H](COc4ccc(NC(=O)C5CC5)cc4C(=O)N3C)O2)c1	2.7
COc1ccc(S(=O)(=O)NCc2nc(-c3ccc(C)cc3)oc2C)cc1OC	-42.4
c1ccc(CN=C2SC(=Nc3ccccc3)C3=C2CCCC3)cc1	33.0
O=C1C(Cc2ccccc2)N=C2c3ccccc3N=C(SCc3cc(=O)n4cc(Cl)ccc4n3)N12 (stereo not given)	0.6
Cn1nccc1C(=O)C1CCN(C(=O)c2ccc3c(c2)OCCO3)CC1	-8.2
CC(=O)c1cc(CC(=O)N2Cc3cnn(CCO)c3C2)cs1	13.4
Cc1ccc(S(=O)(=O)Nc2ccc3c(c2)CCC(=O)N3)cc1Cl	68.5
O=C(NC(=O)c1cnccc1C(F)(F)F)Nc1ccc(Cl)cc1Cl	-53.6
Cc1cc(S(=O)(=O)NCC(=O)NC(C)c2cnn(C)c2)ccc1F (stereo not given)	-2.8

Some of the entries so far, as a markdown table.
| SMILES | Tg IFNy HTS |
| --- | --- |
| COc1ccccc1CNC(=O)CC1N=C2c3ccccc3N=C(SCc3ccccc3Cl)N2C1=O (stereo not given) | -4.2 |
| COc1cccc(NC(=O)C[C@H]2CC[C@H]3[C@@H](COc4ccc(NC(=O)C5CC5)cc4C(=O)N3C)O2)c1 | 2.7 |
| COc1ccc(S(=O)(=O)NCc2nc(-c3ccc(C)cc3)oc2C)cc1OC | -42.4 |

The main list resumes, repeating the 3 entries before the break.
SMILES	Tg IFNy HTS
Cc1ccc(S(=O)(=O)Nc2ccc3c(c2)CCC(=O)N3)cc1Cl	68.5
O=C(NC(=O)c1cnccc1C(F)(F)F)Nc1ccc(Cl)cc1Cl	-53.6
Cc1cc(S(=O)(=O)NCC(=O)NC(C)c2cnn(C)c2)ccc1F (stereo not given)	-2.8
COC(=O)c1cccnc1NCC1CNCCOC1 (stereo not given)	7.9
COc1cccc(C(=O)N2CCc3c([nH]c4ccccc34)C2c2ccc(C)cc2)c1 (stereo not given)	-126.5*
C[C@@H]1CN([C@@H](C)CO)C(=O)c2ccccc2-c2ccccc2CO[C@@H]1CN(C)C(=O)NC1CCCCC1	-44.9
Cn1ccnc1SCC(=O)Nc1ccc(C(=O)N2CCCCC2)cc1	-25.6
O=C(Nc1nccs1)[C@H]1[C@H](CO)[C@H]2Cn3c(cccc3=O)[C@@H]1N2C(=O)C1CC1	0.6
Cc1ccnc(NCCNC(=O)CN2CCOc3ccccc3C2)c1	-10.3
Cc1[nH]c2cc(C(=O)NCCN3CCCC3=O)ccc2c1C	12.2
CCCCN(CC)CCNC(=O)C1=C(C)C(=O)OC12CCN(CC)CC2	21.6
COc1ccccc1-c1nc(Cn2nnc(-c3nc(-c4cccc(C(F)(F)F)c4)no3)c2C)c(C)o1	13.3
Cc1ccc(S(=O)(=O)Nc2ccc3c(c2)CC(=O)N([C@@H](C)CO)C[C@@H](C)[C@@H](CN(C)S(=O)(=O)c2ccccc2)O3)cc1	-27.2
COc1ccc2c3c([nH]c2c1)[C@@H](CO)N(C(=O)NC1CCCC1)CC31CCN(S(C)(=O)=O)CC1	-33.5
CN(C)C1CC2(CCN(S(=O)(=O)c3cn(C)cn3)CC2)C1	4.8
Cc1c(CN(C)C(=O)C(=O)N2CCCCCC2)cnn1C	-2.1
CCOC(=O)N1CCN(C(=S)NC(=O)c2nn(C)cc2Br)CC1	7.1
Cc1nn(Cc2ccccc2)c(C)c1CN(Cc1ccc2c(c1)OCO2)CC(C)O (stereo not given)	-49.5
Cc1cccc(CNC2=NCCNC23CCN(S(=O)(=O)c2cc(C)cc(C)c2)CC3)c1	-1.8
CN(C)CC(=O)N1CCC2(CCOCC2COCC2CC2)CC1 (stereo not given)	-0.4
O=C(CSC(=O)c1ccco1)Nc1cc(C(F)(F)F)cc(C(F)(F)F)c1	-43.0
CO[C@@H]1CN(C)C(=O)c2cc(NC(=O)c3ccc(F)cc3)ccc2OC[C@@H](C)N(C(=O)CC2CC2)C[C@H]1C	38.7
COc1ccc(OC)c(C(=O)c2coc3ccc(O)c(CN(C)C)c23)c1	-18.5
COc1ccc(S(=O)(=O)Nc2ccc3c(c2)C(=O)N([C@H](C)CO)C[C@@H](C)[C@@H](CN(C)C(=O)Nc2c(C)noc2C)OCCCC[C@@H](C)O3)cc1	6.0
Cc1ccc(N(Cc2nc(-c3cccc(C)c3)oc2C)S(=O)(=O)c2cccs2)cc1	-58.5
O=C(c1ccc(-c2ccccc2)[nH]1)N1CCC(O)(CO)CC1	182.8
CC(C)N(C)Cc1ncn2c1CN(CC(=O)N(C)C)CCC2	0.7
CC12NC(=S)NC(c3cc(Br)ccc3O1)C2C(=O)Nc1ccccc1 (stereo not given)	35.6

Fetched one by one from the entries so far:
SMILES	Tg IFNy HTS
COc1ccc2c3c([nH]c2c1)[C@@H](CO)N(C(=O)NC1CCCC1)CC31CCN(S(C)(=O)=O)CC1	-33.5
COC(=O)c1cccnc1NCC1CNCCOC1 (stereo not given)	7.9
O=C(c1ccc(-c2ccccc2)[nH]1)N1CCC(O)(CO)CC1	182.8
CN(C)C1CC2(CCN(S(=O)(=O)c3cn(C)cn3)CC2)C1	4.8
O=C(CSC(=O)c1ccco1)Nc1cc(C(F)(F)F)cc(C(F)(F)F)c1	-43.0
CCOC(=O)N1CCN(C(=S)NC(=O)c2nn(C)cc2Br)CC1	7.1
COc1ccc(S(=O)(=O)Nc2ccc3c(c2)C(=O)N([C@H](C)CO)C[C@@H](C)[C@@H](CN(C)C(=O)Nc2c(C)noc2C)OCCCC[C@@H](C)O3)cc1	6.0

The list continues:
SMILES	Tg IFNy HTS
O=C(C[C@H]1C=C[C@H](NS(=O)(=O)c2ccccc2)[C@@H](CO)O1)NCCN1CCCCC1	-28.4
COc1nccnc1N1CCC(O)(c2ccc(C)cn2)CC1	-1.7
Cc1ccc(C2=NC3(CCN(CC(=O)Nc4ccc(C(C)C)cc4)CC3)NC2=O)cc1	56.8
CCc1nn(CC(=O)NCCOC)c(=O)c2cc3oc(C)cc3n12	-10.3
CC(Cc1ccc2c(c1)OCO2)c1nc2cnccn2c1NCc1ccccc1 (stereo not given)	50.9
Cc1ccc(NC(=O)CC(=O)N(C)CCN2CCCCCC2)c(C)c1	19.5
CC(NCc1nc(-c2ccco2)no1)c1ccccc1-n1cccn1 (stereo not given)	-36.2
Cc1noc2nc(C3CC3)cc(C(=O)N3CCCC4(CC3)CNC(=O)O4)c12 (stereo not given)	-5.4
CCN1CCN(Cc2cc(C(=O)NCc3cc(C)nn3C)no2)CC1	3.4
N#CCc1ccc(OC(=O)c2cccnc2)cc1	1.5
CN(C)c1nc2c(cc1C(=O)N1CCCC1)CCN(CC1CC1)CC2	-5.3
Cc1ccc2c(c1)c(CNC(C)Cn1nc(C)cc1C)nn2C (stereo not given)	-0.2
Cc1ncc2c(c1CNC(=O)c1cn(CC3CCCCC3)nn1)CCNC2	2.4
NC(N)=NCCNS(=O)(=O)c1cccc2cnccc12	-48.8&11.2
CCCN(Cc1nccn1C)C(=O)c1cc(C)c(C)c(S(N)(=O)=O)c1	10.3
CCSc1ncc(CN(C)Cc2cc(=O)[nH]c3ccccc23)cn1	i
c1cncc(CNc2cc(-c3cnc4ccccc4c3)c3cc[nH]c3n2)c1	24.9
Cc1ccc(NC(=O)c2cccc(N(C)C)c2)cc1NC(=O)c1ccc(O)cc1	6.2&25.7
O=C(Cc1c(F)cccc1Cl)NC(=O)NCCc1c(F)cccc1Cl	-82.9*
Cc1ccc2c(c1C)-n1cccc1C1(CCN(S(=O)(=O)c3ccc4c(c3)oc(=O)n4C)CC1)N2	6.7
O=C(NCCc1csc(-c2ccccc2)n1)c1c(F)cccc1Cl	i
O=c1cccc(-c2cccc3cccnc23)[nH]1	1.1
Cc1ccc(C(=O)N2CCC3(CC2)Nc2ccc(C)c(C)c2-n2cccc23)cc1	-2.1
Cc1cccc(NC(=O)c2cc(-c3ccccc3)nc3c(C)cc(C)cc23)c1	-59.6
COc1cc(NS(C)(=O)=O)ccc1Cc1c2ccccc2nc2ccccc12	-83.3*

New compounds follow.
SMILES	Tg IFNy HTS
Cc1ccc(-c2nc3cnccn3c2NCCC(=O)N2CCC3(CC2)OCCO3)cc1	-41.4
O=C(NCCc1ccccn1)c1cccc2[nH]cc(CN3CCSCC3)c12	15.3
CCCCNC(=O)CCC1N=C2c3ccccc3N=C(SCc3ccccc3F)N2C1=O (stereo not given)	-2.4
O=C(Cn1c(=O)oc2ccccc21)N1CCCCC1CCn1cccn1 (stereo not given)	-1.3
COc1ccc(-c2nnc(-c3nc(NCCc4cnc[nH]4)c4ccccc4n3)o2)cc1	-52.8
COCCN1C(=O)CCc2cc(NS(=O)(=O)c3ccc(F)c(F)c3)ccc21	-23.5
Cc1c(C(=O)NCCCN2C(C)CCCC2C)oc2ccc3c(c12)C(O)CC1(CCCCC1)O3 (stereo not given)	-56.2
CCCn1c(=O)c(-c2nc(-c3cc(OC)ccc3OC)no2)c(O)c2ccccc21	59.7
CC1=NC2(CCC(C(=O)N3CCN(c4ccccn4)CC3)CC2)C(=O)N1CC1CC1 (stereo not given)	-42.0
CCC(C(=O)NCCCN1CCCC1)n1c2ccccc2c2cnn(C)c(=O)c21 (stereo not given)	-39.4
CN(C)CC(=O)N1[C@H](CO)[C@@H](c2ccc(-c3cccc(C(=O)N(C)C)c3)cc2)[C@@H]1C#N	9.1
CCOC(=O)N1CCN(Cc2ccc3c(c2)CN(C(=O)c2ccc4ncccc4c2)CCO3)CC1	-5.5
CCN1c2cc(C)ccc2-n2cccc2C12CCN(C(=O)NC1CCCC1)CC2	95.1
Cc1noc(C)c1NC(=O)N[C@@H]1C=C[C@H](CC(=O)Nc2ccc(-c3ccccc3)cc2)O[C@H]1CO	72.2
CC(C)OC(=O)N1CCC(Oc2ncnc3c2cnn3-c2ccc(S(C)(=O)=O)cc2F)CC1	-4.0
Cc1c(C(=O)NN2CCOCC2)nn(-c2ccc(Cl)cc2Cl)c1-c1ccc(I)cc1	17.6&24.4
C=CCN1CCO[C@H]2CN(S(=O)(=O)Cc3ccccc3)CC[C@@H]2C1	-1.9
Cc1cc(C)nc(CN2CCC(=O)N(Cc3ccc(F)cc3)C(C(C)C)C2)n1 (stereo not given)	88.4
Cc1ccccc1NC(=O)N1CC[C@H]2[C@H](CC1)S(=O)(=O)CCN2C	6.4
CC(C)COc1ccc(-c2noc(-c3c(O)c4cc(F)ccc4n(C)c3=O)n2)cc1	15.2
CNc1nc(C)c(C(=O)N2CCN(Cc3nc4ccccc4c(=O)[nH]3)CC2)s1	3.7
CCOC(=O)c1nc(N(CC)c2cccc(C)c2)c2ccccc2n1	-1.7
Cc1ccc(NC(=S)C2CC(C)OC(C)C2)cc1C (stereo not given)	29.1
COc1nc2ccccc2cc1-c1c(-c2ccccc2)ncn1C(CO)CO	-45.7
COc1ccc2c3c(n(C)c2c1)[C@H](CO)N(CC1CCOCC1)CC31CCN(C(=O)CN(C)C)CC1	-6.9

Next section.
SMILES	Tg IFNy HTS
COc1cc(CCC(=O)N2CCC3(CC2)Nc2ccc(C)c(C)c2-n2cccc23)cc(OC)c1OC	37.7
CCCNC(=O)N(C)C[C@H]1Oc2cc(C#C[C@@H](C)O)ccc2S(=O)(=O)N([C@@H](C)CO)C[C@@H]1C	11.6
O=C(c1cc2cccnc2n(Cc2ccccc2F)c1=O)N1CCCC1	68.5
Cc1ccc(-c2noc(-c3c(O)c4ccccc4[nH]c3=O)n2)cc1C	54.4
O=C(c1csc(-c2cccs2)n1)N1CC(=O)N(C2CCCCC2)CC(OCc2cccnc2)C1 (stereo not given)	-5.1
CCn1cnc2cc(NC(=O)CCN3C(=O)C4C5CCC(C5)C4C3=O)ccc21 (stereo not given)	14.2
C=CCN1C(=O)CCCC12CCCN(S(=O)(=O)Cc1ccccc1)C2 (stereo not given)	-27.0
CCOc1ccc(-c2nc(CN3CCN(C(=O)Nc4cccc(C)c4C)CC3)c(C)o2)cc1	-0.7
CCOc1ccc(-c2nc(Cc3noc(-c4ccc(C#N)cc4)n3)c(C)o2)cc1	17.6
COc1ccc(OC)c(-c2nc(CN3C[C@@H](C)O[C@@H](C)C3)c(C)o2)c1	-3.6
O=C1c2ccccc2OC(c2ccccc2)C12N=NCC2c1ccc(Cl)cc1Cl (stereo not given)	32.2
CCS(=O)(=O)c1ccc(-c2cc(N)nc3[nH]ccc23)s1	-13.8
CS(=O)(=O)N1CC[C@H](Oc2cccnc2)[C@@H](Cc2ccccc2)C1	-4.5
Cc1cccc(-c2nc(C)c(CCNS(=O)(=O)c3ccc4c(c3)CCCC4)s2)c1	58.5
Nc1cc(N2CCC3(CCNCC3)CC2)nc(N2CCOCC2)n1	-6.4
Cc1ccc(-c2nc(CCNC(=O)C(=O)Nc3ccc(F)cc3)cs2)cc1	41.2

Some of the compounds tested. The share of hits here may be higher or lower than overall.
